PI4K2A inh – PI4K2A (human) kinase inhibition | Q9BTU6 | purified PI4K2A, ADP-Glo luminescence, 1 h; hits give low values | activity change, negative = inhibition, % at 76.9 µM | actives 0.13% (n = 420,000) | AID 1346378; in the data active = activity change below about -50%; inconclusive = mostly about -30% to -49%;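 also: -100% = wells without enzyme as full effect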
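PI4K2A activity was measured by ADP-Glo luminescence: enzyme (4 ug/mL stock) and phosphatidylinositol (1.2 mM stock) in Tris pH 7.5/MgCl2/EGTA/Triton X-100 buffer were reacted with ATP (300 microM stock) for one hour at ambient temperature.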
GLS inh – inhibitors of human glutaminase (GLS). AID 624170. GLS enzymatic activity, qHTS titration. Potency, µM (doses to about 45.5 µM), for the others: at the highest dose activity change, negative = inhibition, usual class: inhibitors. O94925. actives 0.21% (n = 410,000); also: potency is read from the fitted curve at half-maximal effect; % is scaled to controls: 0 for no effect and ±100 for the full control effect
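Human kidney-isoform GLS in 45 mM KH2PO4 pH 8.2, 0.02% Tween-20, with compound, started with 1mM L-Glutamine (added stock). Glutamate oxidase/HRP/Amplex red coupled fluorescence read at start and after 30 min at RT.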
RGS4 inhibitor – blocks human RGS4-accelerated GTP hydrolysis; P49798; Transcreener GDP fluorescence polarization, RGS4-accelerated GTP hydrolysis; actives 0.039% (n = 390,000); Potency, µM (titrated, usually from 114 µM), inactives show at the highest dose activity change, negative = inhibition, actives largely listed as inhibitors; also: potency is read from the fitted curve at half-maximal effect; % is scaled to controls: 0 for no effect and ±100 for the full control effect; nearly all actives have a fitted effect of over 75% in size; some results filed as inactive show a strong effect at the top dose
Target sequence (P49798 whole entry, looked up): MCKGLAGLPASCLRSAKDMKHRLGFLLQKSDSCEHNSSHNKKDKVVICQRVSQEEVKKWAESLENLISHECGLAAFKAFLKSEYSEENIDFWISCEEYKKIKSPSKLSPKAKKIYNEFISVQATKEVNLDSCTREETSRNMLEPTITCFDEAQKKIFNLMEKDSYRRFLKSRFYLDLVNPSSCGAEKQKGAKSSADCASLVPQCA
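MLSMR compounds (23 nl, pin-transferred) preincubated 10 min at room temperature with a 500nM (2x) first reagent, then RGS4 at 900nM (2x) plus Transcreener GDP mix added; fluorescence polarization (620/688 nm) read before and after 90 min at 30 °C.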
ALOX12 inh – blocks human arachidonate 12S-lipoxygenase. actives 1.1% (n = 580,000). P18054. Potency, µM (series often up to 108 µM), inactives show at the highest dose activity change, negative = inhibition, actives largely listed as inhibitors. purified 12hLO, xylenol orange hydroperoxide absorbance; also: potency is read from the fitted curve at half-maximal effect; % is scaled to controls: 0 for no effect and ±100 for the full control effect
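Purified human 12hLO (150 nM final) in 25 mM Hepes, 0.01% Triton X-100, pH 7.0 was preincubated 15 min at room temperature with compound. Then 40 uM arachidonic acid was added, 30 min. Hydroperoxide was read by Fe-XO absorbance ratio 573/405 nm.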
G9a block – inhibitors of human histone lysine methyltransferase G9a. G9a H3K9 monomethylation, AlphaScreen, 2 h. Potency, µM (series often up to 102 µM), for the others: top-dose activity, negative = inhibition, actives largely listed as inhibitors. actives 8.8% (n = 350,000). AID 504332; also: potency is read from the fitted curve at half-maximal effect; % is scaled to controls: 0 for no effect and ±100 for the full control effect; nearly all actives have a fitted effect of over 75% in size
Target sequence (Q96KQ7 913-1193 limits assumed): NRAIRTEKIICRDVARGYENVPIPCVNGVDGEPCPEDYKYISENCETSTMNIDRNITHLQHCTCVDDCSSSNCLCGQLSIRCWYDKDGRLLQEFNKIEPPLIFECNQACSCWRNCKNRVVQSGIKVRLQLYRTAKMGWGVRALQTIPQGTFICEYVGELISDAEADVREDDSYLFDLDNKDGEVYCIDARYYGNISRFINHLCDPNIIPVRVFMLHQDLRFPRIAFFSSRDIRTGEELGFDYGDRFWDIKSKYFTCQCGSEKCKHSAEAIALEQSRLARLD
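Enzyme 20 nM + cpd, 15 min RT; add b-H3K9 pep 500 nM / SAM 20 uM; 2 h RT; anti-H3K9me1 Ab 0.5 ug/mL + SA donor / anti-rabbit acceptor beads 20 ug/mL each, 10 min; AlphaScreen read.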
ERG-DNA inh – ERG Ets/DNA interaction inhibition | P11308 | fluorescence polarization, His-ERG Ets domain / labelled DNA | Potency, µM (highest dose often 76.9 µM), without a hit: top-dose FP activity, negative = inhibition, usual class: inhibitors | actives 0.028% (n = 370,000); active = well fitted inhibition curve with a large enough effect in the polarisation, with a control signal flat; inconclusive = small, poorly fitted or top-dose-only effect, or effect the other way, or a change in a side signal; inactive = no such curve, though single readings can be large or run the other way; the % refers to the polarisation;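 also: polarization taken with two DNA probes labelled with fluorescein and Texas red; potency is read from the fitted curve at half-maximal effect; % of control where 0% means no effect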
Target sequence (P11308 whole entry, looked up, the tested form may be a part): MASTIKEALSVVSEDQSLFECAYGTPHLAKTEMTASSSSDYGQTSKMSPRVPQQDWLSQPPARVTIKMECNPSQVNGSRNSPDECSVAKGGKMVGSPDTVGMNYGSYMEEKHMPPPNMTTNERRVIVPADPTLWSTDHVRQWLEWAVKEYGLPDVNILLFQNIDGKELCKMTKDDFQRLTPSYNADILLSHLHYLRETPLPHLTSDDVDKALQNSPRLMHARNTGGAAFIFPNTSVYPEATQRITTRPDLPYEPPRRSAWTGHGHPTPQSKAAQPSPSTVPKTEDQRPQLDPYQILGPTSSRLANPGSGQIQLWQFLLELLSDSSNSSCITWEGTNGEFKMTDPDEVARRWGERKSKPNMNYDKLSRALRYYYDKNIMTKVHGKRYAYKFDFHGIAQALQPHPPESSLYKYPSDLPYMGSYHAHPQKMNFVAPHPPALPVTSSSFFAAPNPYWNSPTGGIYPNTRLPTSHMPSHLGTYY
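His-tagged ERG Ets domain (1 uM in the protein solution; 300mM KCl, 50mM Tris-HCl, 1mM EDTA, 1mM DTT, pH 7.5) received compound, then a probe mix of 5 nM fluorescein-DNA and 100nM Texas-615-DNA. Fluorescence polarization was read for both dyes.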
The depositor's hits bear a star; ? = inconclusive; / = not tested or not shown; [ ] = another dose, or the depositor's remark. Unless noted, calls follow the shape of the dose curve; as a rule, active = well fitted curve in the direction sought with a large enough effect; inconclusive = small, poorly fitted or top-dose-only effect, or another doubt; inactive = no such curve, though single readings can be large; an effect the other way counts as inactive or inconclusive.

structure | PI4K2A inh | GLS inh | RGS4 inhibitor | ALOX12 inh | G9a block | ERG-DNA inh
Cc1ccccc1OCCN1CCC(Cc2ccccc2)CC1 | 6 | 5% | 18% | ? | ? | -15%
COc1cc(S(=O)(=O)NCc2ccc3c(c2)OCO3)c(OC)cc1C | 1 | -11% | -28% | 9% | / | 9%
COc1cc(CN2CCC(Cc3ccccc3)CC2)c([N+](=O)[O-])cc1OC | 7 | -4% | ? | ? | / | -8%
COc1ccccc1CNC(=O)CNCC1CCCO1 (stereo not drawn) | 5 | -17% | -11% | -5% | 10µM* | -14%
O=C(c1cccc2ccccc12)N1CCC(N2CCN(c3ccccc3)CC2)CC1 | 2 | 15% | -2% | -2% | ? | -5%
Cc1ccc(S(=O)(=O)N2CCN(Cc3ccccn3)CC2)cc1 | 1 | 5% | -6% | -13% | 3.5µM* | -1%
CC1CC(C)CN(C(=O)COC(=O)c2ccc(S(=O)(=O)N(C)c3ccccc3)cc2)C1 (stereo not drawn) | 4 | 1% | 6% | 6% | / | -2%
CC1(OC(=O)CCc2ccccc2)C(=O)C=C2C=C(c3ccc(C#N)cc3)N(C3CC3)C=C2C1=O (stereo not drawn) | -9 | -5% | -39% | -29% | 3%[59 µM] | -10%
O=C(C1CCCN(Cc2ccccc2F)C1)N1CCc2ccccc2C1 (stereo not drawn) | 2 | -25% | 18% | 0% | -122%[12.7 µM] | 0%
Cc1ccccc1-c1nc(CS(=O)CC(=O)NCCCN(C)c2ccccc2)c(C)o1 (stereo not drawn) | -1 | 28% | -19% | 0% | 16%[0.501 µM] | -1%
CSc1ccc(CNCc2ccc3c(c2)OCO3)cc1 | 7 | -3% | 21% | ? | 22µM* | -6%
Nc1nc(C2CC2)c(Sc2sc(N)nc2C2CC2)s1 | -5 | 26% | -20% | 0% | -16%[59 µM] | -4%
Cc1cc(OCCCCCN2CCCC2)ccc1Cl | 6 | 15% | -7% | ? | 10µM* | -9%
Cc1ccc(S(=O)(=O)N2CCN(C(=O)COC(=O)c3ccccn3)CC2)c(C)c1 | 0 | 0% | 13% | -9% | 45µM* | 13%
C=CCc1cc(C)ccc1OCCn1ccnc1 | -1 | 10% | -29% | -9% | 8.9µM* | -13%
COc1cccc(NC(=O)C(NCC(C)(C)CN(C)C)c2ccccc2)c1 (stereo not drawn) | 2 | 21% | 34% | ? | 11µM* | -5%
CC(C)c1ccc(OCCCCCN2CCOCC2)cc1 | 1 | -3% | 3% | ? | ? | -19%
Cc1cccc(OCC(=O)N2CCC(N3CCOCC3)CC2)c1 | 9 | -2% | -14% | 1.6µM* | ? | -4%
O=C(NCc1ccc(F)cc1)c1cccnc1C(=O)O | -18 | 0% | 1% | -6% | 0% | -17%
CCOC(=O)c1cnc(-c2ccc(C(F)(F)F)cn2)[nH]c1=O | -17 | -4% | -36% | ? | -25% | -7%
CC(C)(C)c1ccc(OCC(O)CN2CCN(C(=O)c3ccccc3)CC2)cc1 (stereo not drawn) | 4 | -3% | -17% | -61% | / | -4%
Cc1ccc(Nc2nc(N)nc(CN3CCN(c4ccccc4F)CC3)n2)cc1 | 10 | 9% | -19% | ? | ? | -3%
Cc1nn(-c2nnc(C)c(=O)[nH]2)c(C)c1SCC(=O)Nc1ccc(C(C)C)cc1 | -4 | 3% | -20% | 124%[activator] | 57%[activator][59 µM] | -2%
CN1/C(=C/C(=S)NC(=O)C2CCC2)C(C)(C)c2ccccc21 | 0 | ? | -23% | ? | 40µM* | 6%
Clc1cccc(Cl)c1CO/N=C/c1c(-c2ccccc2)nc2n1CCS2 | -12 | / | ? | 0% | ? | -2%

Of the compounds above, six contain a halogen.
structure | PI4K2A inh | GLS inh | RGS4 inhibitor | ALOX12 inh | G9a block | ERG-DNA inh
O=C(C1CCCN(Cc2ccccc2F)C1)N1CCc2ccccc2C1 (stereo not drawn) | 2 | -25% | 18% | 0% | -122%[12.7 µM] | 0%
Cc1cc(OCCCCCN2CCCC2)ccc1Cl | 6 | 15% | -7% | ? | 10µM* | -9%
O=C(NCc1ccc(F)cc1)c1cccnc1C(=O)O | -18 | 0% | 1% | -6% | 0% | -17%
CCOC(=O)c1cnc(-c2ccc(C(F)(F)F)cn2)[nH]c1=O | -17 | -4% | -36% | ? | -25% | -7%
Cc1ccc(Nc2nc(N)nc(CN3CCN(c4ccccc4F)CC3)n2)cc1 | 10 | 9% | -19% | ? | ? | -3%
Clc1cccc(Cl)c1CO/N=C/c1c(-c2ccccc2)nc2n1CCS2 | -12 | / | ? | 0% | ? | -2%

Other records
structure | PI4K2A inh | GLS inh | RGS4 inhibitor | ALOX12 inh | G9a block | ERG-DNA inh
O=C(NCCCCNC(=O)c1ccccn1)c1ccccn1 | 5 | -7% | -11% | 1% | 3.5µM* | -12%
CN1CCN(CC(=O)Nc2ccc(S(=O)(=O)N(C)C)cc2)CC1 | -2 | -12% | 10% | ? | 45µM* | -6%
Cc1ccccc1CN1CCN(S(=O)(=O)c2ccc(F)cc2)CC1 | -2 | 12% | 29% | ? | 6.3µM* | -2%
CC(=O)N1CCN(CC(=O)Nc2c(Cl)cccc2Cl)CC1 | -4 | -10% | -12% | -31% | 3.2µM* | 0%
O=C(CN1CCC(N2CCCCC2)CC1)N1CCCc2ccccc21 | 0 | -1% | -1% | -27% | 3.5µM* | 0%
O=C(COc1ccc(Nc2ccccc2)cc1)Nc1ccncc1 | 0 | 6% | -9% | -1% | 45µM* | 3%
CC(C)(C)C(=O)NC(=S)Nc1ccccc1N1CCCC1 | -12 | 13% | -40% | ? | 40µM* | -10%
COc1ccccc1-c1oc2ccccc2c1C#CC1(N)CCCCC1 | -16 | -13% | -28% | ? | -2%[0.501 µM] | 12%
c1ccc(CNC23CC4CC(CC(C4)C2)C3)nc1 | -2 | 1% | -13% | -4% | 14µM* | 11%
CCOC(=O)N1CCC(N2CCN(S(=O)(=O)c3ccc([N+](=O)[O-])cc3)CC2)CC1 | -2 | -3% | -2% | ? | 11µM* | -3%
CCC(C)c1ccc(S(=O)(=O)N2CCN(CC(O)CN3CCOCC3)CC2)cc1 (stereo not drawn) | 5 | 7% | -8% | -17% | 13%[2.33 µM] | 5%
CCN(CC)CC(=O)N1c2ccccc2Oc2c(c(=O)n(C)c(=O)n2C)C1c1cccc([N+](=O)[O-])c1 (stereo not drawn) | -1 | -16% | -12% | ? | / | -4%
Cc1ccc(NCc2nc3ccccc3n2CCOc2ccccc2C)cc1 | -6 | 0% | 0% | 15% | 16µM* | 2%
COc1ccc(CN2CCN(S(=O)(=O)c3ccc(C)cc3)CC2)cc1Br | 6 | -6% | 17% | ? | 7.1µM* | -2%
Cc1cccc(NCCNc2cccc(C)c2)c1 | 6 | -20% | 5% | -1% | ? | 6%
CCOC(=O)c1ccc(NC(=O)N2CC3CCCN3c3ccccc32)cc1 (stereo not drawn) | -6 | 27% | -40% | ? | 10µM* | 0%
CCOc1ccc(CNc2ncc(-c3ccccc3)n2C)cc1 | 1 | ? | 7% | ? | 32µM* | -4%
COc1cc(NC(=O)N2CCC3(CC2)Nc2ccccc2-n2cccc23)cc(OC)c1OC | 1 | -22% | 7% | 0% | ? | 2%
O=[N+]([O-])c1cc(Cl)ccc1N1CCN(c2cccc(C(F)(F)F)c2)CC1 | 3 | 0% | 17% | -13% | 25µM* | 3%
CN(C)c1ccc(C=NN2CCCCCC2)cc1 | -3 | 4% | -28% | ? | / | 0%
C[C@@H](NC(=O)c1[nH]cnc1C(=O)Nc1nccs1)c1ccccc1 | -4 | 0% | -9% | 14% | 3%[0.501 µM] | 10%
COc1cc(CNc2ncc(-c3ccc(Cl)cc3)n2C)cc(OC)c1OC | -9 | 8% | -1% | ? | 4.5µM* | -8%
CC1CCc2nc(NC(=O)CN3CCN(c4ccccc4)CC3)sc2C1 (stereo not drawn) | -19 | 5% | -22% | 129%[activator] | ? | 3%
CCN(c1ccccc1)S(=O)(=O)c1ccc(OC)c(NC(=O)CNC)c1 | 2 | 0% | -17% | ? | -45%[12.7 µM] | 9%
COc1ccc(C(=O)N2CCN(Cc3cc(OC)c(O)c(OC)c3)CC2)cc1OC | -5 | 33% | 23% | ? | 4µM* | /
Cc1cccc(NC(=O)c2ccc(N(C)C3CCCCC3)c([N+](=O)[O-])c2)n1 | 0 | 7% | 7% | ? | 20µM* | 0%
CC(C)CC(=O)N1CCC(N2CCN(c3ccccc3)CC2)CC1 | 2 | 39%[activator] | ? | ? | / | 7%

Three compounds out of the list, arranged by molar mass, smallest number first:
structure | PI4K2A inh | GLS inh | RGS4 inhibitor | ALOX12 inh | G9a block | ERG-DNA inh
CCN(c1ccccc1)S(=O)(=O)c1ccc(OC)c(NC(=O)CNC)c1 | 2 | 0% | -17% | ? | -45%[12.7 µM] | 9%
COc1ccc(CN2CCN(S(=O)(=O)c3ccc(C)cc3)CC2)cc1Br | 6 | -6% | 17% | ? | 7.1µM* | -2%
CCN(CC)CC(=O)N1c2ccccc2Oc2c(c(=O)n(C)c(=O)n2C)C1c1cccc([N+](=O)[O-])c1 (stereo not drawn) | -1 | -16% | -12% | ? | / | -4%

The list is partial. The share of hits here may be higher or lower than overall.
